# Screening results: PubChem BioAssay, several laboratories
# Rce1 inh: inhibitors of yeast Ras-converting enzyme | Q03530 | yeast membranes, quenched prenylated peptide cleavage fluorescence | actives 0.27% (n = 290,000) | AID 2563 | calls only;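 active = fall in fluorescence gain of 50% or more versus controls, with final raw signal at or below 3038400; inconclusive = same 50% fall but final raw signal above 3038400; inactive = fall in fluorescence gain under 50%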;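 also: plate controls were neutral control wells for no effect and wells lacking membranes for full effect; tested at 10 µM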
# Target sequence (Q03530 whole entry, looked up): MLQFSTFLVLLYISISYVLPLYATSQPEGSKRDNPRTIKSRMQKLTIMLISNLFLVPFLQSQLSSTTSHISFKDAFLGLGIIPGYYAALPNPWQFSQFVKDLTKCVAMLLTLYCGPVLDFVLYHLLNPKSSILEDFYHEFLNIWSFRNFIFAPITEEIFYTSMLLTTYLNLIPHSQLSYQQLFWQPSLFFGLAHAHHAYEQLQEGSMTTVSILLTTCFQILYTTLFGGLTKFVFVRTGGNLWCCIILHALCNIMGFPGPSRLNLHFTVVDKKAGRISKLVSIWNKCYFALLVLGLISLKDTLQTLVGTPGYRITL
# PABP FP inh: PABP-poly(A) binding inhibition | AID 2014 | inhibition, % at 35 µM | P11940 | PABP-poly(A) RNA binding, fluorescence polarization | actives 1% (n = 290,000);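 active = 50% or more with normal probe brightness, or confirmed in later tests; inconclusive = above 50% with abnormal brightness, or retests that disagree; inactive = below 50% or failed in later tests; about a fifth of its hits are not listed in these tables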;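 also: calls also rest on retests at 20 µM and on dose response follow-up; controls were probe without protein and protein plus probe with vehicle; some compounds called inactive have numbers as strong as hits; many hits fall short of the cut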
# MT1-MMP act inh: MT1-MMP (human) activation inhibition; P50281; HT1080 RFP-PRO-GFP cells, GFP/RFP ratio fluorescence, overnight; percent of plate control window, DMSO zero; GFP/RFP ratio change, % at 20 µM; actives 0.061% (n = 360,000);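 active = GFP/RFP ratio change of at least 30% with cell ATP level not reduced by more than half and red fluorescence within 50% of control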; also: strong numbers were not always called active
#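 system = RFP-PRO-GFP reporter HT1080 cells | dosing = 20 µM single dose, 1% DMSO | timing = overnight cell settling, then overnight compound exposure, 37 °C, 5% CO2 | read-out basis = GFP/RFP fluorescence ratio | controls = DMSO and RFP-L50D-GFP cell wells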
# UUG fidelity: modulators of start codon recognition fidelity in yeast; actives 0.13% (n = 350,000); S. cerevisiae UUG-firefly luciferase reporter, luminescence/redox ratio; activity score, % at 18.7 µM;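 active = replicate mean at a twofold rise or more, about +100% in these data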;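 also: firefly luciferase made from a UUG start codon reports start codon fidelity; reporter light over untreated wells divided by growth signal over untreated wells; some hits fall short of that in this replicate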
# HIV Env fusion: blocks HIV Env-driven cell-cell fusion; HeLa-JRFL Env/CEM21 cell fusion, luciferase; inhibition, % at 12.3 µM; actives 1.1% (n = 360,000);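 active = mean replicate inhibition score of at least 50 and every replicate individually at or above 50; inconclusive = only one of the two criteria met; inactive = mean below 50 and not all replicates reaching 50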;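 also: 0% = plate neutral controls and 100% = maraviroc near 300 nM; one replicate is shown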
# eIF4H inh: inhibitors of RNA binding by human eIF4H; inhibition, % at 35 µM; actives 0.94% (n = 290,000); Q15056; AID 2012; eIF4H fluorescence polarization binding assay;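 active = 50% or more with normal probe brightness, or confirmed in later tests; inconclusive = above 50% with abnormal brightness, or retests that disagree; inactive = below 50% or failed in later tests; about a fifth of its hits are not listed in these tables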;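 also: calls also rest on retests at 20 µM and on dose response follow-up; 0% = protein and probe with vehicle and 100% = probe without protein; strong numbers were not always called active; many hits fall short of the cut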
# CSC inhib: blocks cancer stem cells; actives 1.1% (n = 300,000); AID 2717; cancer stem cell-like cells viability, luminescence; inhibition, % at 7.5 µM;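 active = mean at 75% or more and at least half the replicates too; inconclusive = mean and replicates disagree; tested in HMLE shEcad cells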;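 also: 0% = median of negative and 100% = median of positive control wells; the first replicate is given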
# eIF4H inh retest: recorded beside eIF4H inh, whose call it bears; inhibition, %; compound at 20 µM; confirmation average;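 mean of two retest wells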
# PABP FP inh retest: recorded beside PABP FP inh, whose call it bears; inhibition, %; compound at 20 µM; confirmation repeats;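 mean of two retest wells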
# MT1-MMP act inh RFP: second read-out of MT1-MMP act inh, no call of its own (marks repeat the call); RFP signal change, %; measured here: RFP expression control read;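 0 = vehicle wells; hits needed this value within 50% of zero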
# An asterisk follows results filed as active; i = inactive; ? = inconclusive; nt = not tested or not shown; [ ] = remark or other dose. An unsorted share of the library; about 2.9% have a hit in one of these screens.
SMILES,Rce1 inh,PABP FP inh,MT1-MMP act inh,MT1-MMP act inh RFP,UUG fidelity,HIV Env fusion,eIF4H inh,CSC inhib,others
Cc1cc(C)n2nc(C(=O)OCC(=O)Nc3ccc4c(c3)OC(F)(F)O4)nc2n1,i,-14,1,2,-9,nt,-9,-10,
C/C(CC(=O)Nc1ccc(C)c(Cl)c1)=N\NC(=O)c1ccccn1,nt,4,-4,0,-16,-10,-3,0,
COc1ccc2[nH]c(=O)c(CNc3ccc(C)cc3C)cc2c1,i,12,-5,4,nt,-31,0,0,
COc1ccc(C(=O)NC(=S)NCc2cccnc2)cc1[N+](=O)[O-],i,7,2,3,nt,6,-5,4,
CCCc1c(C(=O)OCC)sc(N)c1C#N,i,-3,-3,-1,nt,-52,-3,-10,
O=C(Nc1ccc(F)cc1)C1CCCN1S(=O)(=O)c1cccc2nsnc12 (stereo unspecified),i,-1,6,0,11,9,5,-19,
O=C(NC1CCCC1)N[C@@H]1C=C[C@@H](CC(=O)N2CCOCC2)O[C@@H]1CO,nt,nt,-3,6,-7,-4[16.7 µM],nt,nt,
Fc1ccc(-c2ccc(-c3nn4c(-c5ccco5)nnc4s3)o2)cc1,i,27,-8,6,-1,-102,82,3,eIF4H inh retest=4;PABP FP inh retest=10
CCOC(=O)c1c(NC(C)=O)sc2c(O)c(CN3CCN(CC)CC3)ccc12,i,15,11,3,4,nt,-8,41,
O=C(Nc1ccccc1F)c1ccc(C(=O)c2ccccc2)cc1,i,1,0,0,-13,-22,-7,-8,
CCC(C)(C(=O)NC1CCCC1)N(Cc1cccs1)C(=O)c1ccccn1 (stereo unspecified),i,4,-4,-4,nt,-2,-5,-1,
Cc1ccc(NC(=O)CCNS(=O)(=O)c2cccc3nonc23)cc1,i,-6,2,5,-17,-51,2,-1,
CCOc1ccc(N2CC(O)=C(c3nc4ccccc4c(=O)[nH]3)C2=N)cc1,i,?,4,5,nt,-8,18,-10,
COc1cccc(C(=O)N(c2ccc(C)cc2)C2C=CS(=O)(=O)C2)c1 (stereo unspecified),i,5,0,7,-9,25,-1,1,
Cc1ccc(NC(=O)/C=C/c2cccs2)c([N+](=O)[O-])c1,i,4,6,0,-20,i,-9,-19,
COc1ccc(CC(=O)NNC(=O)[C@@H]2CCCC[C@@H]2C(=O)O)cc1,i,-9,1,4,-1,-7,-9,nt,
COc1ccc(C(C)=O)cc1CSc1nc2ccccc2o1,i,-2,3,-3,-19,nt,-9,-5,
CCN1CCN(c2nc(N(C)c3ccccc3)nc(N)c2[N+](=O)[O-])CC1,i,-3,-1,1,-10,-22,0,7,
CC(C)c1ccc(NC(=O)N2CCCC2C(=O)Nc2ccc(-n3cnnn3)cc2)cc1 (stereo unspecified),i,1,1,3,nt,-3,2,4,
OC1(c2ccc(OC(F)F)cc2)CSC(=Nc2cccnc2)N1C1CC1 (stereo unspecified),nt,-5,-1,-26,-5,75*,-5,0,
Cc1noc(-c2ccc(Cl)cc2)c1C(=O)O/N=C(\N)c1ccc(C(C)(C)C)cc1,i,0,0,3,nt,-82,13,171*,
CC(=O)Nc1ccc(NS(=O)(=O)c2ccc(OC(C)C(=O)N3CCOCC3)cc2)cc1 (stereo unspecified),i,nt,1,-3,-17,nt,nt,-10,
COc1ccccc1N1CCN(C(=O)C2CC2)CC1,i,nt,3,0,-17,25,nt,-15,
COc1ccc(Cl)cc1C(=O)O/N=C(\N)c1ccncc1,i,-8,-2,1,nt,-7,5,-1,
Cc1ccc(O)c(/C=N/NC(=O)Cc2ccc(Cl)cc2)c1,i,-8,5,1,9,7,-12,22,
CN(C[C@H](Cc1ccccc1)N(C[C@H](c1ccccc1)N(CCc1ccccc1)N=O)N=O)N=O,i,-9,-5,-8,0,74*,-2,13,
COc1cc(/C=C/C(=O)OCC(=O)Nc2ccccc2Cl)cc(OC)c1OC,i,0,-4,0,nt,-6,4,0,
COCCCN1C(=O)c2ccc(C(=O)NCCc3ccccc3)cc2C1=O,i,-6,-6,1,-29,-17,-12,-9,
CC(Oc1ccc(Cl)cc1Cl)c1nc(-c2ccc(NC(=O)c3ccccn3)cc2)no1 (stereo unspecified),i,6,5,-12,-27,nt,-6,22,
CCCn1nnnc1NC(=O)CSc1ccc(Cl)cc1,i,-9,-3,-2,-9,nt,-10,12,
CCCCNC(=O)CCn1nc(-c2ccc(Cl)cc2)c2ccccc2c1=O,i,-5,0,-4,nt,9,2,5,
O=C(CN1C(=O)NC2(CCCCCC2)C1=O)NCCc1ccccc1,nt,nt,-3,3,-12,2,nt,nt,
Cc1cc(C)c2ccc(/C=N/O)nc2c1O,i,4,11,1,-10,-2,10,21,
C(=C\c1ccccc1)/CN1CCN(C(c2cccs2)c2nnnn2Cc2ccccc2)CC1 (stereo unspecified),nt,nt,2,-2,-8,-18,nt,nt,
CSc1ccc(/C=N/N2CCN(c3ccccc3)CC2)cc1,i,6,2,3,nt,-4,1,5,
CC(=O)Nc1ccc(S(=O)(=O)N2CCC(C(N)=O)(N3CCCCC3)CC2)cc1,i,-2,2,2,-9,-7,-3,1,
Cc1cccc2c1N1C(=O)c3c(C(=O)O)cccc3C1CC2C (stereo unspecified),nt,9,6,-3,8,nt,0,-8,
CC(C)C(=O)N1CCC2(CC1)Oc1ccc(F)cc1C(=O)C21CC(c2ccccc2)=NO1 (stereo unspecified),i,-5,-3,2,-12,-42,2,-8,
C#CCN(C[C@@H]1[C@@H](OC(=O)NCc2ccccc2)[C@@H](OC(=O)NCc2ccccc2)CN(C(=O)OC(C)C)N1C(=O)OC(C)C)S(=O)(=O)c1ccc(C)cc1,nt,nt,-6,-5,-2,-90,nt,nt,
Cc1[nH]nc2c1C(c1ccc(-c3ccc(Cl)cc3)o1)C(C#N)=C(N)O2 (stereo unspecified),i,4,-4,1,nt,nt,18,?,
CCOc1ccc(CCNC(=O)Cn2nc(C)c3c(C)n(-c4ccccc4)nc3c2=O)cc1,i,-14,1,-1,-14,-4,8,-1,
COc1ccccc1Nc1nc(-c2sc(NC(=O)CC(C)C)nc2C)cs1,i,4,-8,2,16,15,-2,28,
CN(CC(=O)Nc1ccc(F)cc1)C(=O)COC(=O)c1cccc(N(C)C)c1,nt,nt,5,-6,-10,nt,nt,-10,
O=C1c2ccccc2C(O)N1Cc1cccs1 (stereo unspecified),i,-4,3,6,-16,-68,-11,-8,
Cc1cc(-c2csc3nc[nH]c(=S)c23)cc(C)c1C,i,-12,-16,-19,-29,9,8,104*,
Cc1ccc(C(=O)O/N=C(\N)c2ccccn2)c(C)c1,i,3,-2,1,-92,nt,-9,-3,
CCNC(=O)N(CC)C[C@H]1N[C@@](C)(C(=O)OC)[C@H]2C(=O)N(Cc3ccccc3)C(=O)[C@@H]12,nt,nt,0,1,-20,-59,nt,nt,
Cc1ccc2cc(/C=N/Nc3nc4ccccc4[nH]3)c(Cl)nc2c1,i,10,1,8,nt,-68,12,nt,
COC(=O)CCCc1nc2ccccc2s1,i,0,-3,2,nt,nt,-12,-15,
C1=CC2(C=C1)OC21CCC2(C=CC3(C2)OC3C2CCCCC2)CC1 (stereo unspecified),nt,nt,-1,0,10,-6,nt,nt,
CC(=O)Nc1cc(C)nn1-c1nc(C)cc(C)n1,i,-14,1,5,nt,3,-7,-11,
O=C1NC[C@H](Cc2ccc(O)cc2)N(CC2CCCCC2)C1=O,i,-2,1,3,1,-19,3,-11,
COc1ccc(-n2c(Cc3cccn3C)nnc2SCC(=O)Nc2cc(Cl)ccc2OC)cc1,i,-30,3,-1,-3,-18,-14,6,
CC1CCCCC1NC(=O)c1cccc(S(=O)(=O)N2CCN(C)CC2)c1 (stereo unspecified),i,nt,-3,2,-14,5,nt,-3,
CCOC(=O)CN1C(=O)c2ccccc2Sc2ncccc21,i,-6,1,1,-8,-25,-6,-13,
O=C(C1=C(O)C(=O)N(CCCn2ccnc2)C1c1ccc(F)cc1)c1ccco1 (stereo unspecified),nt,0,-3,1,-13,-5,9,-5,
C=CCn1c(-c2cccs2)nc2ccccc21,nt,3,-2,1,-9,nt,8,nt,
COc1ccccc1NC(=O)c1cnc(SC)nc1,i,-11,-3,1,19,-6,1,nt,
Cc1ccc(C2(c3ccc(C)cc3)NC(=O)N(CC(=O)NCCCN3CCCC3=O)C2=O)cc1,nt,nt,2,4,1,3,nt,-1,
COCC(=O)N1CCCC(N(C)CCc2ccc(OC)c(OC)c2)C1 (stereo unspecified),i,-3,-1,0,-26,-15,0,-2,

# Quoted at random: two records from the list, in no set order.
SMILES,Rce1 inh,PABP FP inh,MT1-MMP act inh,MT1-MMP act inh RFP,UUG fidelity,HIV Env fusion,eIF4H inh,CSC inhib,others
COc1ccc(C(=O)NC(=S)NCc2cccnc2)cc1[N+](=O)[O-],i,7,2,3,nt,6,-5,4,
Cc1cc(C)c2ccc(/C=N/O)nc2c1O,i,4,11,1,-10,-2,10,21,

# Later entries:
SMILES,Rce1 inh,PABP FP inh,MT1-MMP act inh,MT1-MMP act inh RFP,UUG fidelity,HIV Env fusion,eIF4H inh,CSC inhib,others
CC(=O)n1cc(/C=N/NC(N)=S)c2ccccc21,i,9,3,-1,nt,22,-4,-6,
O=[N+]([O-])c1ccc(C(=S)N2CCN(c3ccc(F)cc3)CC2)cc1,i,-14,2,0,nt,27,9,45,
CC1(C(=O)Nc2ccc3nc[nH]c3c2)CCN1C(=O)CCc1ccccc1 (stereo unspecified),nt,nt,2,4,-11,-25,nt,nt,
CN(C)c1cccc(C(=O)OCC(=O)Nc2ccccc2-c2ccccc2)c1,i,27,5,2,nt,0,-15,6,
CCn1c(SCC(=O)c2[nH]c(C)c(C(C)=O)c2C)nnc1-c1ccncc1,i,1,-3,-5,-14,nt,11,-3,
COCCn1c(=S)[nH]c2cc(C(=O)NCCc3ccc(OC)c(OC)c3)ccc2c1=O,i,-7,1,1,-19,-12,-6,-11,
O=C(COC(=O)c1cc(=O)[nH]c2ccccc12)Nc1nc(-c2cccc(Br)c2)cs1,i,-4,5,4,nt,nt,-4,-8,
Cn1c2c(c(=O)n(C)c1=O)C(c1ccccc1Cl)C(C#N)=C(N)O2 (stereo unspecified),i,-2,-3,4,nt,4,-9,-6,
COc1ccc2[nH]c(C(O)(Cc3cccnc3)Cc3cccnc3)cc2c1,i,8,0,-3,-8,nt,2,3,
COc1ccccc1C(=O)NCCNC(=O)c1ccco1,i,-4,4,4,0,-93,-4,3,
CC1(C)CC(N(Cc2ccc(F)cc2)C(=O)c2ccc(F)cc2)CCO1 (stereo unspecified),i,7,-3,-3,3,5,1,-6,
Cn1c(=O)c(C(=O)CN2CCOCC2)c(N)n(Cc2ccccc2)c1=O,i,6,-1,-1,-7,nt,10,47,
O=C(CN1C(=O)C2C3CCC(C3)C2C1=O)N1CCN(Cc2ccccc2)CC1 (stereo unspecified),i,-2,-6,-3,-23,10,7,1,
CCOc1ccc(S(=O)(=O)N2CCCCC2)cc1NC(=O)Cc1ccc(OC)cc1,nt,nt,-8,-17,-14,51,nt,nt,
CC1=C(C)/C(=N\OS(=O)(=O)c2ccccc2)C=CC1=O,i,8,1,-2,-50,nt,6,4,
N#Cc1ccccc1Sc1ccccc1N,i,-12,1,6,-19,nt,-8,nt,
Cc1ccc(NC(=O)CCN2C(=O)c3ccccc3S2(=O)=O)cc1F,i,nt,0,0,-1,-3,nt,-4,
O=C1C(=Nc2cccc(Cl)c2)CC(c2ccc(Cl)cc2)N1c1cccc(Cl)c1 (stereo unspecified),i,4,-2,1,-28,4,-3,6,
